Source: PubChem (Broad Institute)
Vaccinia inh: blocks a specific stage of Vaccinia orthopoxvirus infection. Vaccinia-infected cells, mCherry/Venus stage reporter fluorescence; active compounds read low; some inactives read as strong as hits. activity change (mCherry), % (concentration not given with the values). 0.01% of 89,000 active. AID 1053133;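 active = mCherry past -33% and 40 or more points under the early reporter, replicates agreeing; inconclusive = past -33% without that gap or agreement; tested in A549 cells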;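 note: scaled between vehicle wells and reference inhibitor wells; 23 nL library stock went into each well; one replicate is shown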
Vaccinia inh Venus: recorded beside Vaccinia inh, whose call it bears; activity change (Venus), %; measured here: Venus reporter, other viral stage;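 negative = less Venus signal; first of two replicates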
* hit, by the source's call; ? = inconclusive; / = not tested or not shown; & = joins results of further samples. A portion of the library; rates above refer to the full screens.

1) CCCc1cn(CC[C@@H]2CC[C@@H](NC(=O)C3CCOCC3)[C@H](CO)O2)nn1
2) CCS(=O)(=O)Nc1ccc2c(c1)C(=O)N(C)[C@@H]1CC[C@H](CC(=O)NC3CCCCC3)O[C@H]1CO2
3) O=C(C[C@H]1C[C@@H]2c3cc(NC(=O)C4CCC4)ccc3O[C@@H]2[C@@H](CO)O1)NCc1ccccc1
4) O=C(C[C@@H]1C=C[C@H](NC(=O)C2CCOCC2)[C@@H](CO)O1)NCC1CC1
5) O=C(C[C@@H]1CC[C@H]2[C@@H](COC[C@@H](O)CN2CC2CCCCC2)O1)NCc1ccc(Cl)cc1
6) Cc1noc(C)c1S(=O)(=O)Nc1ccc2c(c1)CC(=O)N([C@H](C)CO)C[C@H](C)[C@@H](CN(C)C(=O)NC1CCCCC1)O2
7) O=C(CC1CC1)Nc1ccc2c(c1)[C@H]1C[C@@H](CC(=O)NC3CCCCC3)O[C@@H](CO)[C@H]1O2
8) O=C(C1CCC1)N1CC(=O)N2[C@H](CO)[C@H](c3ccc(-c4cccnc4)cc3)[C@H]2C1
assay / entry	1	2	3	4	5	6	7	8
Vaccinia inh	-4	14	-7	25	?	12	10	5
Vaccinia inh Venus	-2	22	-3	36	/	6	6	1

9) O=C(C[C@H]1C=C[C@@H](NC(=O)CN2CCOCC2)[C@H](CO)O1)NCCc1ccncc1
10) CO[C@@H]1CN(C)C(=O)c2ccc(NC(=O)c3ccccc3)cc2OC[C@@H](C)NC[C@@H]1C
11) CCC(=O)Nc1ccc2c(c1)C(=O)N(C)C[C@H](OC)[C@@H](C)CN(CCC(F)(F)F)[C@@H](C)CO2
12) COC(=O)[C@H]1[C@H](CO)[C@H]2Cn3c(ccc(C4=CCCC4)c3=O)[C@@H]1N2CC1CCCCC1
13) CCCNC(=O)N(C)C[C@@H]1Oc2cc(-c3ccccc3F)ccc2S(=O)(=O)N([C@H](C)CO)C[C@H]1C
14) O=C(O)C1=C[C@H](c2ccc(C(F)(F)F)cc2)C[C@H](OCc2ccc(CO)cc2)O1
15) COc1cccc(C(=O)Nc2ccc3c(c2)OC[C@H](C)N(C(=O)C2CCCC2)C[C@@H](C)[C@H](OC)CN(C)C3=O)c1
16) C[C@@H](O)C#Cc1ccc([C@H]2[C@@H](CO)N3CCCCN(C(=O)Nc4ccccc4)C[C@@H]23)cc1
assay / entry	9	10	11	12	13	14	15	16
Vaccinia inh	7	15	2	1	1	13	-9	7
Vaccinia inh Venus	14	12	6	3	-5	14	-8	7

17) CN1C(=O)c2cc(NC(=O)Nc3ccc(Cl)cc3)ccc2OC[C@@H]2O[C@H](CC(=O)NCCN3CCCCC3)CC[C@@H]21
18) O=C(N[C@H]1CC[C@@H](CCNC(=O)c2cnccn2)O[C@H]1CO)c1ccc2c(c1)OCO2
19) CC(=O)N[C@H]1CC[C@H](CCNC(=O)C2CC2)O[C@H]1CO
20) CC(C)NC(=O)N(C)C[C@@H]1Oc2ccc(NC(=O)Nc3ccc4c(c3)OCO4)cc2CC(=O)N([C@@H](C)CO)C[C@@H]1C
21) C[C@H]1CN([C@@H](C)CO)C(=O)c2cc(NC(=O)Cc3cn(C)c4ccccc34)ccc2O[C@@H]1CN(C)C
22) C[C@H](CO)N1C[C@H](C)[C@@H](CN(C)Cc2cccc(O)c2)OCc2cnnn2CCCC1=O
23) CCCNC(=O)N(C)C[C@@H]1Oc2ncc(C#C[C@@H](C)O)cc2C(=O)N([C@@H](C)CO)C[C@@H]1C
24) C[C@@H]1CN([C@@H](C)CO)C(=O)c2cccc(NC(=O)Nc3cccc4ccccc34)c2O[C@H]1CN(C)S(=O)(=O)c1ccccc1
assay / entry	17	18	19	20	21	22	23	24
Vaccinia inh	1	4	7	14	9	6&8	20	4
Vaccinia inh Venus	8	-1	0	5	-6	9&4	6	2

25) CC(=O)N(C)C[C@H]1Oc2ncc(C#C[C@H](C)O)cc2C(=O)N([C@@H](C)CO)C[C@@H]1C
26) CC=Cc1ccc2n(c1=O)C[C@H]1[C@H](CO)[C@@H](C(=O)NCC3CC3)[C@@H]2N1Cc1ccccc1OC (mixture of isomers)
27) C[C@H]1CN([C@@H](C)CO)C(=O)Cc2cc(N(C)C)ccc2O[C@H]1CN(C)C(=O)Nc1cccc2ccccc12
28) CC=Cc1ccc2n(c1=O)C[C@H]1[C@H](CO)[C@@H](C(=O)NCc3ccc4c(c3)OCO4)[C@@H]2N1C(=O)C1CC1 (mixture of isomers)
29) O=C(c1cccnc1)N1CC[C@@H]2[C@H](CO)Nc3ccc(-c4cccc(F)c4)cc3[C@@H]21
30) CC=Cc1ccc2n(c1=O)C[C@H]1[C@H](CO)[C@@H](C(=O)N3CCc4ccccc4C3)[C@@H]2N1Cc1ccncc1 (mixture of isomers)
31) CCNC(=O)c1cc2c(c(-c3cccc(-c4cccc(OC)c4)c3)n1)[C@H](CCO)N([S@@](=O)C(C)(C)C)C2
32) C[C@H]1CN([C@@H](C)CO)C(=O)c2cccc(NC(=O)C3CC3)c2O[C@H]1CN(C)Cc1ccc(Cl)c(Cl)c1
assay / entry	25	26	27	28	29	30	31	32
Vaccinia inh	8	3	-2	1	11	0	?	-8
Vaccinia inh Venus	2	6	2	-1	22	-2	/	-3

33) CO[C@H]1CN(C)C(=O)c2ccc(NC(=O)Nc3ccc(Cl)c(Cl)c3)cc2OC[C@H](C)NC[C@@H]1C
34) CCC(=O)N1CC2(CN(Cc3ccc(Cl)cc3)C2)c2c([nH]c3cc(OC)ccc23)[C@@H]1CO
35) CCCNC(=O)C[C@H]1CC[C@@H]2[C@H](COC[C@H](O)CN2C(=O)C2CCOCC2)O1
36) COc1ccc(S(=O)(=O)Nc2ccc3c(c2)C(=O)N([C@H](C)CO)C[C@H](C)[C@H](CN(C)Cc2ccc(C(=O)Nc4ccccc4N)cc2)OCCCC[C@@H](C)O3)cc1
37) O=C(NCC[C@@H]1CC[C@@H](NC(=O)C2CCOCC2)[C@H](CO)O1)Nc1ccc(Cl)cc1
38) C[C@@H]1CN([C@@H](C)CO)C(=O)c2cccc(NC(=O)Nc3ccccc3)c2O[C@H]1CN(C)S(=O)(=O)c1ccc(F)cc1
39) CNC(=O)C[C@@H]1CC[C@@H]2[C@@H](COc3ccc(NC(=O)c4cccc(OC)c4)cc3C(=O)N2C)O1
40) CCNC(=O)C[C@@H]1CC[C@H]2[C@H](COc3ccc(NC(=O)C4CCCCC4)cc3C(=O)N2C)O1
assay / entry	33	34	35	36	37	38	39	40
Vaccinia inh	?	?	8	33	7	-2	-2	8
Vaccinia inh Venus	/	/	16	25	14	1	0	8

41) C[C@@H]1CN([C@@H](C)CO)C(=O)Cc2cc(NC(=O)Nc3ccc(F)cc3)ccc2O[C@H]1CN(C)C(=O)Nc1ccccc1
42) COCC(=O)N[C@@H]1C=C[C@H](CC(=O)NCc2ccccc2OC)O[C@H]1CO
43) O=C(NCC[C@H]1CC[C@H](NS(=O)(=O)c2ccccc2F)[C@H](CO)O1)c1ccc(F)cc1
44) COc1ccc(S(=O)(=O)N(C)C[C@@H]2OCCCC[C@@H](C)Oc3ccc(NS(=O)(=O)c4ccccc4)cc3C(=O)N([C@H](C)CO)C[C@@H]2C)cc1
45) CC(=O)N(C)C[C@@H]1Oc2ncc(Br)cc2C(=O)N([C@H](C)CO)C[C@@H]1C
46) C[C@@H]1CN([C@@H](C)CO)S(=O)(=O)c2ccc(C#CC3CCCC3)cc2O[C@H]1CN(C)C
47) C[C@H](CO)N1C[C@H](C)[C@@H](CN(C)C(=O)CCCN(C)C)OCCCC[C@H](C)Oc2ccc(NC(=O)Nc3ccccc3)cc2C1=O
48) COc1ccc2c3c([nH]c2c1)[C@@H](CO)N(C(=O)c1cnccn1)CC31CCN(S(C)(=O)=O)CC1
assay / entry	41	42	43	44	45	46	47	48
Vaccinia inh	2	22	-5	5	5	?	10	17
Vaccinia inh Venus	-5	18	2	6	-3	/	7	7

Fetched one by one from the list above (4):
47) C[C@H](CO)N1C[C@H](C)[C@@H](CN(C)C(=O)CCCN(C)C)OCCCC[C@H](C)Oc2ccc(NC(=O)Nc3ccccc3)cc2C1=O
41) C[C@@H]1CN([C@@H](C)CO)C(=O)Cc2cc(NC(=O)Nc3ccc(F)cc3)ccc2O[C@H]1CN(C)C(=O)Nc1ccccc1
43) O=C(NCC[C@H]1CC[C@H](NS(=O)(=O)c2ccccc2F)[C@H](CO)O1)c1ccc(F)cc1
46) C[C@@H]1CN([C@@H](C)CO)S(=O)(=O)c2ccc(C#CC3CCCC3)cc2O[C@H]1CN(C)C
assay / entry	47	41	43	46
Vaccinia inh	10	2	-5	?
Vaccinia inh Venus	7	-5	2	/

Continued.
49) COc1ccc(NC(=O)Nc2ccc3c(c2)C(=O)N([C@H](C)CO)C[C@@H](C)[C@H](CN(C)C(=O)Cc2ccccc2)OCCCC[C@@H](C)O3)cc1
50) O=C(Nc1ccc(Cl)cc1)N[C@@H]1CC[C@@H](CCNS(=O)(=O)c2ccccc2F)O[C@@H]1CO
51) C[C@@H]1CN([C@H](C)CO)C(=O)c2cc(NC(=O)CCN3CCOCC3)ccc2O[C@H]1CN(C)C(=O)Nc1ccc2c(c1)OCO2
52) C[C@H](CO)N1C[C@H](C)[C@@H](CN(C)C(=O)Nc2ccccc2)Oc2c(NS(=O)(=O)c3ccc(F)cc3)cccc2C1=O
53) C[C@H](NC(=O)C[C@@H]1C=C[C@@H](NC(=O)Nc2ccc3c(c2)OCO3)[C@H](CO)O1)c1ccccc1
54) C/C=C/c1ccc([C@H]2[C@@H](CO)N(Cc3ccccn3)[C@H]2CNC(C)=O)cc1
55) C[C@H](CO)N1C[C@H](C)[C@@H](CN(C)C(=O)c2ccccc2)Oc2cc(C3=CCCCC3)ccc2S1(=O)=O
56) COc1ccc(CN(C)C[C@@H]2Oc3c(NC(=O)c4cc(C)nn4C)cccc3C(=O)N([C@@H](C)CO)C[C@H]2C)cc1
assay / entry	49	50	51	52	53	54	55	56
Vaccinia inh	?	-25	19	12	4	-1	?	3
Vaccinia inh Venus	/	-15	4	10	5	1	/	0

57) C[C@@H]1CN([C@@H](C)CO)C(=O)Cc2cc(NC(=O)Nc3ccc(C(F)(F)F)cc3)ccc2O[C@H]1CN(C)Cc1ccccc1
58) C[C@@H]1CCCCO[C@@H](CN(C)C(=O)C2CCCCC2)[C@H](C)CN([C@H](C)CO)C(=O)c2cc(NS(=O)(=O)c3cccs3)ccc2O1
59) C[C@H](CO)N1C[C@H](C)[C@@H](CN(C)Cc2ccc(-c3ccccc3)cc2)Oc2ccc(NC(=O)Nc3cccc4ccccc34)cc2C1=O
60) C[C@@H]1CN([C@H](C)CO)C(=O)c2cc(C#CCN(C)C)cnc2O[C@@H]1CN(C)C(=O)NC1CCCC1
61) C[C@@H]1CN([C@H](C)CO)S(=O)(=O)c2ccc(-c3cccnc3)cc2O[C@H]1CN(C)C(=O)NC1CCCC1
62) C[C@H]1CN([C@@H](C)CO)C(=O)c2cc(-c3ccccc3F)cnc2O[C@@H]1CN(C)C(=O)NC1CCCCC1
63) CO[C@@H]1CN(C)C(=O)c2cc(NC(=O)Cc3ccccc3)ccc2OC[C@@H](C)N(C(C)=O)C[C@@H]1C
64) O=C(C[C@@H]1C[C@H]2c3cc(NC(=O)c4ccc5c(c4)OCO5)ccc3O[C@H]2[C@@H](CO)O1)NCc1cccnc1
assay / entry	57	58	59	60	61	62	63	64
Vaccinia inh	?	?	-4	9	9	10&-2	-5	-3
Vaccinia inh Venus	/	/	6	12	7	7&-4	-6	-4

65) CCS(=O)(=O)N(C)C[C@@H]1N[C@H](CO)[C@@H]1c1ccc(C#CC2CCCC2)cc1
66) COc1cccc(S(=O)(=O)N[C@@H]2CC[C@@H](CCn3cc(-c4ccccc4OC)nn3)O[C@H]2CO)c1
67) CC(C)NC(=O)N(C)C[C@H]1Oc2ncc(C#CC3(O)CCCC3)cc2C(=O)N([C@@H](C)CO)C[C@@H]1C
68) C[C@H](CO)N1C[C@H](C)[C@H](CN(C)Cc2ccc(-c3ccccc3)cc2)Oc2ccc(N(C)C)cc2C1=O
69) CO[C@H]1CN(C)C(=O)c2cc(NC(=O)C3CCC3)ccc2OC[C@H](C)N(Cc2ccccn2)C[C@@H]1C
70) C[C@@H]1CN([C@@H](C)CO)C(=O)Cc2cc(NC(=O)Nc3cccc4ccccc34)ccc2O[C@@H]1CN(C)S(=O)(=O)c1cn(C)cn1
71) CO[C@@H]1CN(C)C(=O)c2cc(NC(=O)C3CC3)ccc2OC[C@@H](C)N(Cc2nccs2)C[C@@H]1C
72) CCS(=O)(=O)Nc1ccc2c(c1)C(=O)N(C)C[C@H](OC)[C@H](C)CN(C(=O)C1CCC1)[C@H](C)CO2
assay / entry	65	66	67	68	69	70	71	72
Vaccinia inh	-1	-16	21	-26	-8	8	12	-4
Vaccinia inh Venus	9	-7	4	-21	0	1	12	-4

73) C[C@H](CO)N1C[C@H](C)[C@@H](CN(C)Cc2cccnc2)Oc2cc(C#CC3CCCCC3)ccc2S1(=O)=O
74) CCN1[C@@H]2c3ccc(-c4cccc(C(=O)N(C)C)c4)c(=O)n3C[C@@H]2[C@@H](CO)[C@@H]1C(=O)N(C)C
75) N#C[C@@H]1[C@H](c2ccccc2-c2ccccc2)[C@H](CO)N1C(=O)Cc1cccnc1
76) COc1ccc(CN(C)C[C@H]2Oc3ccc(NS(=O)(=O)c4cn(C)cn4)cc3CC(=O)N([C@@H](C)CO)C[C@@H]2C)cc1
assay / entry	73	74	75	76
Vaccinia inh	?	-1	-10	16
Vaccinia inh Venus	/	5	-5	8
